Compound activity deposited in PubChem BioAssay by National Center for Advancing Translational Sciences (NCATS).
HPGD inh – inhibitors of human 15-hydroxyprostaglandin dehydrogenase (HPGD); P15428; purified HPGD, NADH fluorescence kinetic, PGE2 substrate; Potency, µM, inactives show at the highest dose activity change, negative = inhibition, most hits filed as inhibitors; 4.3% of 150,000 active; AID 894; active = well fitted inhibition curve with a large enough effect (not every such curve was filed as active); inconclusive = small, poorly fitted or top-dose-only effect, or another doubt; inactive = no such curve, though single readings can be large or run the other way;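 also: top concentration of the series not given in the record; plate controls included wells without enzyme; inactives centre near -10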
Target sequence (P15428 whole entry, looked up): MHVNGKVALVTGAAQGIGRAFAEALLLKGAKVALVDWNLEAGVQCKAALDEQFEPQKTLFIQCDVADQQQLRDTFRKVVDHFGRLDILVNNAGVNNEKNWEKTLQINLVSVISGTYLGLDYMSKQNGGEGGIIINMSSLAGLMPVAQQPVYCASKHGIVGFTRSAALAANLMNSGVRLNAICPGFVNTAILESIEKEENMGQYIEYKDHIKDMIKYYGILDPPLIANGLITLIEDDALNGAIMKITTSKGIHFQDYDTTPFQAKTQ
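NADH formation kinetics: reaction with 30 uM PGE2 and 1 mM NAD+ (final), 20 nM enzyme, Tris-HCl pH 8 with Tween 20, after 15 min compound preincubation at room temperature. Fluorescence change, last versus first of five reads.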
* marks the source's active call; other numbers are inactive results; ? = inconclusive; & = joins results of further samples. % is scaled to controls: 0 for no effect and ±100 for the full control effect; potency is read from the fitted curve at half-maximal effect. Not all compounds are listed. The share of hits here may be higher or lower than overall.

Compound	HPGD inh
Cc1ccc(-n2c(O)c(C=NC3CCCCC3N)c(=O)[nH]c2=O)cc1C (stereo unspecified)	-14%
C=C(C)[C@]12C[C@@H](C)[C@@]34O[C@](Cc5ccccc5)(O[C@@H]1[C@@H]3C=C(COC(=O)Cc1ccc(O)c(OC)c1)C[C@]1(O)C(=O)C(C)=C[C@@H]41)O2	-7%
O=C(Cl)c1ccccc1F	-14%
Nc1cccc(Cl)c1	-4%
N#CC(C#N)=Cc1ccc(O)c(O)c1	32µM*
CCS(=O)CCSP(=O)(OC)OC (stereo unspecified)	-5%
CCCNC(=O)N1C2CCC1CC(O)(c1cccnc1)C2 (stereo unspecified)	2%
CN(C)c1ccc(N(C)C)cc1	-27%
O=C(CN1CC(c2ccccc2)CC1=O)Nc1cccc(F)c1 (stereo unspecified)	-3%
O=C(NCc1ccc(C(=O)N2CCC3(CC2)OCCO3)cc1)c1ccc2c(c1)OCO2	-18%
O=c1c(O)c(-c2ccc(O)c(O)c2)oc2c(O)c(O)cc(O)c12	18µM*
CC(C(=O)Nc1ccc(Cl)cc1Cl)N1CC=C(c2ccccc2)CC1 (stereo unspecified)	-13%
CCC(C)C(=O)OC1C[C@@]2(C)C(c3ccoc3)OC(=O)CC23OC2(C)OC34C(OC(=O)C(C)C)[C@]3(O)C(OC(=O)C5(C)OC5C)[C@]5(C)CC3(O)[C@](C)(C5CC(=O)OC)C14O2 (stereo partly specified)	-2%
C/C=C1/CN2CC[C@]34C(=C(C=O)[C@@H]1C[C@H]23)Nc1c(O)cccc14	-7%
CCSC(=O)Cl	-9%
COc1ccc(Br)cc1CN1CCN(C(=O)Cc2ccccc2)CC1	-4%
CCc1cccc(CC)c1NC(=S)N1CC2CC(C1)c1cccc(=O)n1C2 (stereo unspecified)	-3%
CCOC(=O)Cn1c(=O)oc2cc(S(=O)(=O)NC3CCCc4ccccc43)ccc21 (stereo unspecified)	?
C#C[C@]1(O)CC[C@H]2[C@@H]3CCC4=CC(=O)CCC4(C)[C@H]3CCC21C (stereo partly specified)	-11%
COC(=O)[C@@H](N)CCCN=C(N)N[N+](=O)[O-]	-8%

Some values from the entries so far.
`O=C(Cl)c1ccccc1F` in HPGD inh shows -14%
`CCSC(=O)Cl` in HPGD inh shows -9%

(cont.)
Compound	HPGD inh
CN(C)CP(=O)(Nc1ccccc1)N(C)C (stereo unspecified)	-2%
CNCC/C=C\c1cccnc1	-6%
O=c1oc2ccccc2c(O)c1C(c1ccccc1O)c1c(O)c2ccccc2oc1=O	-3%
CCCCN(Cc1ccccc1)C1CCN(CCc2ccccc2)CC1	-2%
CCCCCCCCOC(=O)c1ccccc1C(=O)OCCCCCCCC	-10%
C=CCn1c(O)c(/C=N/N2CCOCC2)c(=O)[nH]c1=S	-14%
O=C1Nc2ccccc2C2(CCN(CCc3ccc(C(F)(F)F)cc3)CC2)O1	-8%
Nc1c(C(=O)NCc2ccco2)c2nc3ccccc3nc2n1CCN1CCCCC1	?
N[C@H](Cc1o[nH]c(=O)c1Cl)C(=O)O	1%
S=C1CN=C(c2ccccc2Cl)c2cc(Cl)ccc2N1	-8%
CCCNS(=O)(=O)c1ccc(OCC(=O)N2CCN(Cc3ccc4c(c3)OCO4)CC2)cc1	-18%
COC(=O)C(O)(c1ccc2c(c1)CCCN2)C(F)(F)F (stereo unspecified)	0%
Cc1ccccc1-n1c(O)c(/C=N/Nc2nc3c(c(=O)n(C)c(=O)n3C)n2C)c(=O)[nH]c1=S	-19%
C/C=C1/C[C@@H](C)[C@](O)(CO)C(=O)OCC2=CCN3CC[C@@H](OC1=O)C23 (stereo partly specified)	1%
C=CCn1c(O)c(C(CC)=Nc2ccccc2NC(C)=O)c(=O)[nH]c1=O	-16%
CCC1(c2ccccc2)C(=O)NC(=O)N(C)C1=O (stereo unspecified)	-5%
C=CCc1ccc2c(c1)OCO2	0%&-6%
O=C(Nc1cccc(OC(=O)N2CCCCC2)c1)N1CCCCC1	2%
Cc1nn(-c2ccccc2)c2c1C(c1ccc3c(c1)OCO3)SCC(=O)N2 (stereo unspecified)	8.9µM*
CC(=O)NC(=O)NC(C)Cc1ccccc1 (stereo unspecified)	-9%
O=[N+]([O-])c1cc(Cl)c(Cl)cc1Cl	-8%
O=P1(Nc2ccc(F)cc2)COc2ccccc2OC1	1.1µM*
Cc1ccc(C[N+](C)(C)C)o1	3%&3%
Cc1ccc2nsnc2c1-n1c(C)nc2ccccc2c1=O	-14%
CC(C)[C@@]1(NC(=O)[C@@H]2C[C@H]3c4cccc5[nH]cc(c45)C[C@@H]3N(C)C2)O[C@@]2(O)[C@H]3CCCN3C(=O)[C@H](Cc3ccccc3)N2C1=O	-5%&-10%
CN1Cc2c(ccc3c2OCO3)C2C(O)Cc3cc4c(cc3C21)OCO4 (stereo unspecified)	1%&-11%
CCN1C[C@@]2(COC)C3[C@@H](OC)C4[C@@H]1[C@@]3(C1C[C@@]3(O)[C@H](OC(=O)c5ccccc5)C1[C@]4(OC(C)=O)[C@@H](O)[C@@H]3OC)[C@@H](OC)C[C@H]2O (stereo partly specified)	-2%
CCCC(=O)C1C(=O)NC(=O)NC1=O	7%
COc1cccc(CNC2CN3CCC2CC3)c1OC (stereo unspecified)	-4%
CCOP(=S)(OCC)Oc1ccc2c(C)c(Cl)c(=O)oc2c1	?
CC[C@@H]1[C@@H]2Cc3ccc(O)cc3[C@@]1(CC)CCN2C	-2%
NC(N)=NCCN=C(N)N	-4%
COc1ccc(CC2NC[C@H](O)[C@H]2OC(C)=O)cc1 (stereo partly specified)	-3%
CC(C)(C)C(=O)C(Oc1ccc(Cl)cc1)n1cncn1 (stereo unspecified)	-3%
CNc1ccc(C(=O)CC(O)CCC(C)C2OC(=O)CC(O)CC(=O)CC(O)CC(O)CC(O)CC(O)CC3(O)CC(O)C(C(=O)OC)C(CC(O[C@@H]4OC(C)C(O)C(N)C4O)/C=C/C=C/C=C/C=C/C=C/C=C/C=C/C2C)O3)cc1 (stereo partly specified)	-14%
O=C(COc1ccc(S(=O)(=O)N2CCOCC2)cc1)N1CCN(Cc2ccc3c(c2)OCO3)CC1	-3%
O=C1c2ccccc2C(=O)c2ccccc21	-5%
Brc1ccc(Oc2cc(Br)c(Br)cc2Br)c(Br)c1	-8%&-6%
CCCCN1C(=O)NC(=O)C2(Cc3ccccc3N3CCOCC32)C1=O (stereo unspecified)	-4%
CCCCCCCCCCCCCCCCOC[C@H](COP(=O)([O-])OCC[N+](C)(C)C)OC(C)=O	-9%

The list goes on, overlapping the part above by two compounds.
Compound	HPGD inh
CCCCN1C(=O)NC(=O)C2(Cc3ccccc3N3CCOCC32)C1=O (stereo unspecified)	-4%
CCCCCCCCCCCCCCCCOC[C@H](COP(=O)([O-])OCC[N+](C)(C)C)OC(C)=O	-9%
N#CC(Cl)Cl	-10%
Cc1ccc(-c2nc3ccccc3c(=O)n2-c2ncccc2C)cc1	-6%
CC1CCCCN1CC(=O)c1ccc2cc[nH]c2c1 (stereo unspecified)	?
CN(C)c1ccccc1	-14%
COC(=O)c1ccc(N2C(=O)CC(N3CCC(n4c(=O)[nH]c5ccccc54)CC3)C2=O)cc1 (stereo unspecified)	-13%
Cc1nc2ccccc2c(=O)n1-c1cccc(O)c1	7%
CN1CC[C@@]23CCCC[C@@H]2[C@@H]1Cc1ccc(O)cc13	-5%
COc1ccc(C2C(C#N)=C(N)Oc3c2c(=O)oc2ccccc32)cc1Cn1cc([N+](=O)[O-])cn1 (stereo unspecified)	-19%
NC(CP(=O)(O)O)C(=O)O (stereo unspecified)	3%
CC1=C(C(=O)Nc2ccccc2)SCCO1	-14%
NC1CCCCC1N=Cc1c(O)n(Cc2ccc(F)cc2)c(=O)[nH]c1=O (stereo unspecified)	-22%
C[N+]1(C)C2CCC1CC(OC(=O)c1c[nH]c3ccccc13)C2 (stereo unspecified)	-26%
COc1cc(N2CCOCC2)ccc1C=C1C(=O)NC(=O)NC1=O	32µM*
Cc1nc(N)sc1CCN	0%
CC(=O)C(Sc1ncnc2c1nnn2-c1ccc(F)cc1)C(=O)N(C)C (stereo unspecified)	11µM*
COC(=O)C(O)(c1ccc(NC(=O)c2ccco2)c(OC)c1)C(F)(F)F (stereo unspecified)	-7%
CC12CC1(C)C(=O)N(c1cc(Cl)cc(Cl)c1)C2=O (stereo unspecified)	-1%
Cn1c(=O)cc(SCC(=O)N2CCC3(CC2)OCCO3)c2ccc(Cl)cc21	-17%
CC(=O)c1c(O)n(C2CCCCCC2)c(=O)[nH]c1=O	-4%
CC(=O)N(C1=NCCCS1)c1ccccc1F	-13%
COCCNC(=O)c1c(NC(=O)c2ccco2)n(Cc2ccccc2)c2nc3ccccc3nc12	?
O=C(O)CNCP(=O)(O)O	-7%&-2%
Clc1ccc(C2NCCc3[nH]cnc32)cc1 (stereo unspecified)	-9%
O=c1c2ccccc2nc(-c2ccccc2)n1-n1cccc1	-6%
COc1ccc(-n2nc(C(F)(F)F)cc2-c2ccc(Cl)cc2)cc1	-8%&-15%
O=c1[nH]c(=O)n(-c2cccc3ccccc23)c(O)c1C=NCc1ccc2c(c1)OCO2	-26%
Ic1cncc(OC[C@@H]2CCN2)c1	-14%
Cc1ccc(C)c(CN2CCC(n3nnc4cc(F)ccc43)CC2)c1	-15%
COC1=C[C@@H]2[C@@H]3Cc4ccc(OC)c(O)c4[C@]2(CCN3C)CC1=O	-2%
COc1ccc(-n2c(Cc3cccc([N+](=O)[O-])c3)nc3ccccc3c2=O)cc1	-1%
O=[N+]([O-])c1ccc2c3c(cccc13)CC2	-28%
O=C(O)C(Cl)Cl	-21%
O=[N+]([O-])c1ccc(O[C@@H]2O[C@H](CO)[C@@H](O)[C@H](O)[C@H]2F)c([N+](=O)[O-])c1	-11%
Cc1ccccc1-n1c(O)c(/C=C2/C(c3ccccc3)=Nc3ccccc32)c(=O)[nH]c1=O	28µM*
COC(=O)C(O)(c1c[nH]c2ccccc12)C(F)(F)F (stereo unspecified)	2%
CN(CCc1ccccc1)Cc1ccccc1[N+](=O)[O-]	-13%
COc1ccccc1OCCCn1cc(C(=O)c2ccco2)c2ccccc21	-24%
O=[As](O)(O)c1ccc2nc3cc([As](=O)(O)O)ccc3nc2c1	-6%
Cc1cccc(N)c1C	-11%
O=C(CCN1CC2CCC(CC2)C1)c1cccs1	1%

Seven compounds drawn at random from the list so far:
Compound	HPGD inh
CCCC(=O)C1C(=O)NC(=O)NC1=O	7%
O=[N+]([O-])c1ccc(O[C@@H]2O[C@H](CO)[C@@H](O)[C@H](O)[C@H]2F)c([N+](=O)[O-])c1	-11%
CC(C)(C)C(=O)C(Oc1ccc(Cl)cc1)n1cncn1 (stereo unspecified)	-3%
C=CCn1c(O)c(/C=N/N2CCOCC2)c(=O)[nH]c1=S	-14%
CCN1C[C@@]2(COC)C3[C@@H](OC)C4[C@@H]1[C@@]3(C1C[C@@]3(O)[C@H](OC(=O)c5ccccc5)C1[C@]4(OC(C)=O)[C@@H](O)[C@@H]3OC)[C@@H](OC)C[C@H]2O (stereo partly specified)	-2%
CC[C@@H]1[C@@H]2Cc3ccc(O)cc3[C@@]1(CC)CCN2C	-2%
COC(=O)c1ccc(N2C(=O)CC(N3CCC(n4c(=O)[nH]c5ccccc54)CC3)C2=O)cc1 (stereo unspecified)	-13%

Later entries.
Compound	HPGD inh
O=C(O)CC[N+](=O)[O-]	-17%&-5%
CCCCCOc1c(OC)ccc2cc(C(=O)NCc3ccc4c(c3)OCO4)c(=O)[nH]c12	-12%
CC(=O)N1CC(=O)Nc2ccc(Cl)cc2C1c1ccc(F)cc1 (stereo unspecified)	-5%
CC(Cc1ccccc1)[n+]1cc(/N=C(\N)[O-])on1 (stereo unspecified)	-11%
O=C1CN=C(c2ccccc2)c2ccccc2N1Cc1ccc(C(F)(F)F)cc1	-14%
NC(=O)c1cc([N+](=O)[O-])cc([N+](=O)[O-])c1	1%
CCOP(=O)(OCC)C(NC(=O)c1ccccc1C)C(Cl)(Cl)Cl (stereo unspecified)	-7%
CN(C)CCCNc1c2c(nc3ccc(Cl)cc13)CCCC2	-4%
Cc1nccc2c1[nH]c1ccccc12	?
Cc1ccccc1Cc1c(C)nc2nc(SCC(=O)N3CCC4(CC3)OCCO4)nn2c1C	-5%
C/C=C(/C)C(=O)O[C@H]1C(C)=C2[C@H]([C@@H]1OC(=O)CCCCCCC)[C@@](C)(OC(C)=O)C[C@H](OC(=O)CCC)[C@@]1(O)[C@H]2OC(=O)[C@@]1(C)O	?
O=c1[nH]c(=O)n(Cc2ccccc2)c(O)c1C=NCCN1CCNCC1	22µM*
COc1ccc2nc(/N=C/c3c(O)n(-c4cccc(Cl)c4)c(=O)[nH]c3=O)sc2c1	-16%
c1ccc2c(CN3CCN(C4CCCCC4)CC3)c[nH]c2c1	-16%
Cc1cc(NC(=O)COC(=O)c2c(C)nn(Cc3ccccc3)c2Cl)no1	-3%
Cc1ccc(N2C(=O)CC(=O)NC2=O)cc1	4%
NC(=O)CN1CCCC1=O	-2%&-2%&-5%&0%
CC(C)(C)n1cccc1/C=C1\C(=O)NC(=O)N(c2ccccc2)C1=O	2%
c1ccc2c(CN3CCCCCCC3)c[nH]c2c1	6%
O=C(O)C1CSC(c2cccnc2)N1 (stereo unspecified)	-3%
Cn1c(O)c(C=Nc2ccc(Cl)cc2)c(=O)n(C)c1=O	?
Cc1cc(/C=C2/C(=O)NC(=O)N(Cc3ccco3)C2=O)c(C)n1-c1ccccc1	?
COc1cc2[nH]c(=O)n(-c3cccc(Cl)c3)c(=O)c2cc1OC	?
